Screening results (PubChem)
A1 apoptosis 2 – blocks A1, raising caspase activity; MEF A1-2A-BIM cells, caspase-Glo luminescence, 3 h; percent of clofoctol response, DMSO zero; AID 2465; caspase activation, % (concentration not given with the values); 24,000 tested, under 10 active; in the data active means caspase activation above about 5.9%;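 further: wells of about 30 µL received 50 nL stock; the first replicate is given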
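Material: mouse embryonic fibroblasts co-expressing A1 and BIM (A1-2A-BIM), primed for A1 dependence / Quantity: 2500 cells/well / Buffer or medium: RPMI-1640 growth medium with 10% FBS / Doses: 50 nL compound per well, pinned / Schedule: 3 h compound exposure at 37 °C / Signal: Caspase-Glo luminescence (DEVD substrate) / Measure: Caspase-3/7 activation, seen as rise in luminescence signal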
An asterisk follows results filed as active; & = joins results of further samples.

SMILES | A1 apoptosis 2
C[C@@H]1CN([C@H](C)CO)C(=O)c2cc(NC(=O)Nc3ccc4c(c3)OCO4)ccc2O[C@@H](C)CCCCO[C@H]1CN(C)Cc1ccc(C(F)(F)F)cc1 | 0.3
COc1ccc(NC(=O)Nc2ccc3c(c2)C(=O)N([C@H](C)CO)C[C@@H](C)[C@H](CN(C)C(=O)Nc2c(C)noc2C)OCCCC[C@@H](C)O3)cc1 | -0.8
C[C@@H]1CN([C@@H](C)CO)C(=O)c2cc(NS(=O)(=O)c3cn(C)cn3)ccc2O[C@H]1CN(C)S(C)(=O)=O | -0.7
Cc1cc(C(=O)Nc2cccc3c2O[C@H](CN(C)Cc2ccc(C(=O)O)cc2)[C@H](C)CN([C@H](C)CO)C3=O)n(C)n1 | -0.3
C[C@@H]1CN([C@@H](C)CO)C(=O)c2cccc(NS(=O)(=O)c3cccs3)c2O[C@@H]1CN(C)C | 0.4
COc1ccc(CN(C)C[C@H]2OCCCC[C@H](C)Oc3ccc(NS(=O)(=O)c4ccc(OC)cc4)cc3C(=O)N([C@@H](C)CO)C[C@H]2C)cc1 | -0.1
COc1ccc(S(=O)(=O)N(C)C[C@H]2OCCCC[C@H](C)Oc3ccc(NS(=O)(=O)c4cn(C)cn4)cc3C(=O)N([C@H](C)CO)C[C@H]2C)cc1 | -0.1
C[C@@H]1CCCCO[C@@H](CN(C)C(=O)CCCN(C)C)[C@H](C)CN([C@@H](C)CO)C(=O)c2cc(NS(=O)(=O)c3ccccc3)ccc2O1 | -1.5
C[C@@H]1CCCCO[C@@H](CN(C)Cc2ccccc2)[C@@H](C)CN([C@@H](C)CO)C(=O)c2cc(NS(=O)(=O)c3cccs3)ccc2O1 | -0.8
C[C@H]1CN([C@@H](C)CO)C(=O)c2cccc(NC(=O)C3CCCCC3)c2O[C@@H]1CN(C)Cc1ccccc1 | 0.0
C[C@@H]1CCCCO[C@H](CN(C)C(=O)Nc2ccc3c(c2)OCO3)[C@@H](C)CN([C@H](C)CO)C(=O)c2cc(NS(=O)(=O)c3ccc(F)cc3)ccc2O1 | 0.5
Cc1noc(C)c1S(=O)(=O)N(C)C[C@H]1OCCCC[C@H](C)Oc2ccc(NC(=O)Cc3ccccc3)cc2C(=O)N([C@@H](C)CO)C[C@@H]1C | 0.5
Cc1ccc(S(=O)(=O)Nc2ccc3c(c2)C(=O)N([C@@H](C)CO)C[C@H](C)[C@@H](CN(C)CC2CC2)OCCCC[C@H](C)O3)cc1 | -1.1
C[C@@H]1CCCCO[C@H](CN(C)C(=O)Cc2ccccc2)[C@@H](C)CN([C@@H](C)CO)C(=O)c2cc(NC(=O)Cc3ccccc3)ccc2O1 | 0.2
CNC[C@H]1OCCCC[C@@H](C)Oc2ccc(NS(C)(=O)=O)cc2C(=O)N([C@H](C)CO)C[C@H]1C | -0.7
COc1ccc(NC(=O)Nc2ccc3c(c2)CC(=O)N([C@@H](C)CO)C[C@@H](C)[C@H](CN(C)CC2CC2)O3)cc1 | 0.8
Cc1ccc(S(=O)(=O)N(C)C[C@@H]2OCCCC[C@H](C)Oc3ccc(NS(=O)(=O)c4cn(C)cn4)cc3C(=O)N([C@@H](C)CO)C[C@@H]2C)cc1 | 0.3
C[C@H](CO)N1C[C@H](C)[C@@H](CN(C)Cc2ccncc2)Oc2c(NS(C)(=O)=O)cccc2C1=O | 0.8
C[C@@H]1CN([C@@H](C)CO)C(=O)Cc2cc(NC(=O)CCN3CCOCC3)ccc2O[C@H]1CN(C)C(=O)Nc1ccc(C(F)(F)F)cc1 | 0.7
C[C@@H]1CN([C@@H](C)CO)C(=O)Cc2cc(NC(=O)CCCCCC(=O)Nc3ccccc3N)ccc2O[C@H]1CN(C)C(=O)Nc1ccc2c(c1)OCO2 | -0.2
CNC[C@@H]1Oc2c(NC(=O)c3cnccn3)cccc2C(=O)N([C@H](C)CO)C[C@H]1C | 0.1
C[C@H]1CN([C@@H](C)CO)C(=O)c2cccc(NC(=O)Nc3cccc4ccccc34)c2O[C@H]1CN(C)Cc1ccc(C(=O)O)cc1 | -0.8
C[C@H](CO)N1C[C@H](C)[C@@H](CN(C)Cc2ccc(Cl)c(Cl)c2)Oc2ccc(NC(=O)Nc3ccc(F)cc3)cc2CC1=O | -0.4
C[C@H]1CN([C@@H](C)CO)C(=O)CCCn2cc(nn2)CO[C@@H]1CN(C)S(=O)(=O)c1ccc(F)cc1 | 1.1
C[C@@H]1CCCCO[C@@H](CN(C)S(=O)(=O)c2ccc(Cl)cc2)[C@H](C)CN([C@H](C)CO)C(=O)c2cc(NC(=O)c3ccccc3)ccc2O1 | -0.1
C[C@H]1CN([C@@H](C)CO)C(=O)Cc2cc(NC(=O)Cc3cn(C)c4ccccc34)ccc2O[C@@H]1CN(C)C(=O)Nc1ccccc1 | -2.7
C[C@H]1CN([C@@H](C)CO)C(=O)CCCn2cc(nn2)CO[C@@H]1CN(C)S(=O)(=O)c1ccccc1C#N | 0.5
Cc1noc(C)c1NC(=O)N(C)C[C@@H]1Oc2c(NC(=O)NC3CCCCC3)cccc2C(=O)N([C@H](C)CO)C[C@@H]1C | 0.9
C[C@@H]1CN([C@@H](C)CO)C(=O)CCCn2nncc2CO[C@@H]1CN(C)C(=O)CCC(F)(F)F | 0.1
C[C@H]1CN([C@@H](C)CO)C(=O)CCCn2cc(nn2)CO[C@@H]1CN(C)C(=O)c1ccc2ccn(C)c2c1 | 0.3
Cc1noc(C)c1NC(=O)N(C)C[C@@H]1Oc2ccc(NC(=O)Nc3ccc4c(c3)OCO4)cc2CC(=O)N([C@@H](C)CO)C[C@H]1C | -0.5
Cc1noc(C)c1NC(=O)N(C)C[C@H]1Oc2c(NS(=O)(=O)c3ccccc3)cccc2C(=O)N([C@H](C)CO)C[C@@H]1C | -0.5
O=C(CCCCCCC(=O)Nc1ccccc1O)N/N=C/c1cccc(O)c1O | -0.5
C[C@@H]1CCCCO[C@@H](CN(C)S(=O)(=O)c2ccccc2)[C@H](C)CN([C@H](C)CO)C(=O)c2cc(NS(=O)(=O)c3cccs3)ccc2O1 | 0.3
CC(C)NC(=O)Nc1cccc2c1O[C@@H](CN(C)S(=O)(=O)c1cn(C)cn1)[C@@H](C)CN([C@H](C)CO)C2=O | 0.0
C[C@@H]1CN([C@@H](C)CO)C(=O)CCCn2cc(nn2)CO[C@H]1CN(C)Cc1cccc(C(F)(F)F)c1 | -1.1
C[C@@H]1CCCCO[C@H](CN(C)C(=O)Nc2ccc3c(c2)OCO3)[C@@H](C)CN([C@H](C)CO)C(=O)c2cc(NS(C)(=O)=O)ccc2O1 | 0.8
C[C@@H]1CN([C@@H](C)CO)C(=O)c2cc(NS(=O)(=O)c3ccc(F)cc3)ccc2O[C@@H](C)CCCCO[C@@H]1CN(C)Cc1ccc2c(c1)OCO2 | -0.1
C[C@@H]1CN([C@@H](C)CO)C(=O)c2cc(NC(=O)CCC(F)(F)F)ccc2O[C@H]1CN(C)C(=O)Nc1ccc(C(F)(F)F)cc1 | 0.7
C[C@@H]1CN([C@H](C)CO)C(=O)c2cccc(NS(C)(=O)=O)c2O[C@H]1CN(C)Cc1ccc(-c2ccccc2)cc1 | -0.2
C[C@@H]1CCCCO[C@@H](CN(C)Cc2ccc(C(F)(F)F)cc2)[C@H](C)CN([C@H](C)CO)C(=O)c2cc(NC(=O)c3ccccc3)ccc2O1 | 0.8
C[C@H]1CCCCO[C@H](CN(C)S(=O)(=O)c2ccccc2)[C@@H](C)CN([C@@H](C)CO)C(=O)c2cc(NC(=O)NC3CCCCC3)ccc2O1 | -0.2
CC(C)NC(=O)Nc1ccc2c(c1)C(=O)N([C@@H](C)CO)C[C@H](C)[C@@H](CN(C)C)OCCCC[C@H](C)O2 | 0.1
C[C@@H]1CCCCO[C@@H](CN(C)S(=O)(=O)c2ccccc2)[C@@H](C)CN([C@@H](C)CO)C(=O)c2cc(NC(=O)c3ccncc3)ccc2O1 | 0.5
C[C@@H]1CCCCO[C@H](CN(C)Cc2ccc(C(F)(F)F)cc2)[C@@H](C)CN([C@H](C)CO)C(=O)c2cc(NS(=O)(=O)c3ccccc3)ccc2O1 | 0.4
C[C@H](CO)N1C[C@H](C)[C@H](CN(C)S(C)(=O)=O)Oc2ccc(NC(=O)Nc3ccccc3)cc2CC1=O | 0.1
C[C@H]1CCCCO[C@@H](CN(C)C(=O)Nc2ccc(C(F)(F)F)cc2)[C@@H](C)CN([C@@H](C)CO)C(=O)c2cc(NS(=O)(=O)c3cccs3)ccc2O1 | -1.8
C[C@H](CO)N1C[C@H](C)[C@@H](CN(C)C(=O)c2ccccc2)OCCCC[C@H](C)Oc2ccc(NS(=O)(=O)c3cn(C)cn3)cc2C1=O | -0.8
COc1ccc(NC(=O)Nc2ccc3c(c2)CC(=O)N([C@@H](C)CO)C[C@@H](C)[C@H](CN(C)C)O3)cc1 | 1.7
Cc1noc(C)c1NC(=O)N(C)C[C@H]1Oc2c(NC(=O)Nc3cccc4ccccc34)cccc2C(=O)N([C@@H](C)CO)C[C@@H]1C | 0.2
The listing continues.
SMILES | A1 apoptosis 2
C[C@@H]1CN([C@@H](C)CO)C(=O)Cc2cc(NS(=O)(=O)c3ccc(F)cc3)ccc2O[C@@H]1CN(C)S(=O)(=O)c1ccc(F)cc1 | -1.7
Cc1ccc(S(=O)(=O)Nc2ccc3c(c2)C(=O)N([C@@H](C)CO)C[C@H](C)[C@@H](CN(C)Cc2ccc(Oc4ccccc4)cc2)O3)cc1 | -0.8
C[C@H](CO)N1C[C@H](C)[C@H](CN(C)S(=O)(=O)c2cccs2)OCCCC[C@H](C)Oc2ccc(NC(=O)Nc3ccc(F)cc3)cc2C1=O | -0.4
COc1ccc(CN(C)C[C@H]2OCCCC[C@@H](C)Oc3ccc(NC(=O)Nc4c(C)noc4C)cc3C(=O)N([C@@H](C)CO)C[C@@H]2C)cc1 | 0.0
C[C@@H]1CN([C@H](C)CO)C(=O)c2cc(NS(=O)(=O)c3cn(C)cn3)ccc2O[C@@H](C)CCCCO[C@H]1CN(C)S(=O)(=O)c1ccccc1 | 0.1
Cc1ccc(S(=O)(=O)Nc2ccc3c(c2)C(=O)N([C@@H](C)CO)C[C@@H](C)[C@@H](CN(C)S(=O)(=O)c2cn(C)cn2)OCCCC[C@@H](C)O3)cc1 | 0.1
C[C@H](CO)N1C[C@H](C)[C@@H](CN(C)Cc2ccc(C(F)(F)F)cc2)Oc2ccc(NC(=O)Cc3cn(C)c4ccccc34)cc2CC1=O | 0.0
C[C@@H]1CN([C@@H](C)CO)C(=O)Cc2cc(NC(=O)CCN3CCOCC3)ccc2O[C@H]1CN(C)CC1CCCCC1 | -0.1
Cc1ccc(S(=O)(=O)N(C)C[C@@H]2Oc3ncc(-c4ccccc4)cc3C(=O)N([C@H](C)CO)C[C@@H]2C)cc1 | -0.7
C[C@@H]1CN([C@H](C)CO)C(=O)Cc2cc(NS(=O)(=O)c3ccc(F)cc3)ccc2O[C@@H]1CN(C)S(=O)(=O)c1ccccc1 | -0.9
C[C@H](CO)N1C[C@H](C)[C@H](CN(C)Cc2ccc(-c3ccccc3)cc2)Oc2c(NS(=O)(=O)c3cn(C)cn3)cccc2C1=O | 1.5
C[C@@H]1CN([C@H](C)CO)C(=O)c2cc(NC(=O)Nc3cccc4ccccc34)ccc2O[C@@H]1CN(C)C | -0.5
Cc1ccc(S(=O)(=O)Nc2ccc3c(c2)C(=O)N([C@H](C)CO)C[C@@H](C)[C@H](CN(C)C(=O)NC(C)C)O3)cc1 | 0.1
Cc1noc(C)c1NC(=O)N(C)C[C@@H]1OCCCC[C@@H](C)Oc2ccc(NC(=O)Nc3ccc(C(F)(F)F)cc3)cc2C(=O)N([C@@H](C)CO)C[C@H]1C | -0.9
O=C(C1=C[C@@H](c2ccc3c(c2)OCO3)C[C@@H](OCc2ccc(CO)cc2)O1)N1CCN(Cc2ccc3c(c2)OCO3)CC1 | 0.2&0.1
Cc1noc(C)c1S(=O)(=O)N(C)C[C@H]1OCCCC[C@@H](C)Oc2ccc(NC(=O)Nc3ccc4c(c3)OCO4)cc2C(=O)N([C@H](C)CO)C[C@@H]1C | 2.1
C[C@@H]1CN([C@H](C)CO)C(=O)c2cc(NC(=O)Cn3cnnn3)ccc2O[C@H]1CN(C)S(C)(=O)=O | -1.0
C[C@H]1CN([C@@H](C)CO)C(=O)c2cc(NC(=O)Nc3ccc4c(c3)OCO4)ccc2O[C@H]1CN(C)C(=O)Nc1ccc2c(c1)OCO2 | -0.3

Nine structures out of the list, sorted by heavy-atom count, ascending.
SMILES | A1 apoptosis 2
CNC[C@@H]1Oc2c(NC(=O)c3cnccn3)cccc2C(=O)N([C@H](C)CO)C[C@H]1C | 0.1
C[C@H](CO)N1C[C@H](C)[C@@H](CN(C)Cc2ccncc2)Oc2c(NS(C)(=O)=O)cccc2C1=O | 0.8
Cc1ccc(S(=O)(=O)N(C)C[C@@H]2Oc3ncc(-c4ccccc4)cc3C(=O)N([C@H](C)CO)C[C@@H]2C)cc1 | -0.7
C[C@@H]1CN([C@@H](C)CO)C(=O)Cc2cc(NC(=O)CCN3CCOCC3)ccc2O[C@H]1CN(C)CC1CCCCC1 | -0.1
C[C@H]1CN([C@@H](C)CO)C(=O)c2cccc(NC(=O)Nc3cccc4ccccc34)c2O[C@H]1CN(C)Cc1ccc(C(=O)O)cc1 | -0.8
C[C@H](CO)N1C[C@H](C)[C@@H](CN(C)C(=O)c2ccccc2)OCCCC[C@H](C)Oc2ccc(NS(=O)(=O)c3cn(C)cn3)cc2C1=O | -0.8
C[C@H](CO)N1C[C@H](C)[C@H](CN(C)S(=O)(=O)c2cccs2)OCCCC[C@H](C)Oc2ccc(NC(=O)Nc3ccc(F)cc3)cc2C1=O | -0.4
COc1ccc(CN(C)C[C@H]2OCCCC[C@H](C)Oc3ccc(NS(=O)(=O)c4ccc(OC)cc4)cc3C(=O)N([C@@H](C)CO)C[C@H]2C)cc1 | -0.1
C[C@H]1CCCCO[C@@H](CN(C)C(=O)Nc2ccc(C(F)(F)F)cc2)[C@@H](C)CN([C@@H](C)CO)C(=O)c2cc(NS(=O)(=O)c3cccs3)ccc2O1 | -1.8

These rows are one share of the data (hit frequency here may not be typical).
